Source: PubChem (National Center for Advancing Translational Sciences (NCATS))
gsp agonist = qHTS for Agonist of gsp, the Etiologic Mutation Responsible for Fibrous Dysplasia/McCune-Albright Syndrome: qHTS. gsp mutant cells, cAMP HTRF, 30 min; control for the full effect not named in the record. Potency, µM (top dose mostly 76.9 µM), inactives show at the highest dose activation (cAMP increase), most hits filed as activators. 340,000 compounds, 0.13% hits. AID 624287, 2012; active = well fitted activation curve with a large enough effect; inconclusive = small, poorly fitted or top-dose-only effect, or another doubt; inactive = no such curve, though single readings can be large or run the other way; cell line not stated here;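 further: phosphodiesterase inhibitor Ro 20-1724 added with compounds to block cAMP breakdown; potency means the concentration at half of the fitted maximal effect; nearly all actives have a fitted effect of over 60% in size; about a fifth of the inactives were tested at one dose only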
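Cells in DMEM/10% FBS with G418 were pretreated with compounds in DMSO plus […] (300 uM stock) for 30 min at 37C. cAMP was measured by HTRF (cAMP-d2 plus anti-cAMP antibody-K) after 30 min at room temperature.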
TRPV1 potentiator = HTS Assay for Compounds that Act as Potentiators of the Vanilloid Receptor 1 | AID 540277, 2011 | TRPV1-expressing cells, Fluo-8 calcium influx, capsaicin EC20 potentiation; host cell line not named in the record; control for the full effect not named in the record | potentiation, % at 8.33 µM | Transient receptor potential cation channel subfamily V member 1 (Homo sapiens), Q8NER1 | 320,000 compounds, 0.02% hits; active means potentiation above 80%; inconclusive means 30% to 80%; inactive means below 30%; further: 0% is about no effect
Target sequence (Q8NER1 whole entry, looked up): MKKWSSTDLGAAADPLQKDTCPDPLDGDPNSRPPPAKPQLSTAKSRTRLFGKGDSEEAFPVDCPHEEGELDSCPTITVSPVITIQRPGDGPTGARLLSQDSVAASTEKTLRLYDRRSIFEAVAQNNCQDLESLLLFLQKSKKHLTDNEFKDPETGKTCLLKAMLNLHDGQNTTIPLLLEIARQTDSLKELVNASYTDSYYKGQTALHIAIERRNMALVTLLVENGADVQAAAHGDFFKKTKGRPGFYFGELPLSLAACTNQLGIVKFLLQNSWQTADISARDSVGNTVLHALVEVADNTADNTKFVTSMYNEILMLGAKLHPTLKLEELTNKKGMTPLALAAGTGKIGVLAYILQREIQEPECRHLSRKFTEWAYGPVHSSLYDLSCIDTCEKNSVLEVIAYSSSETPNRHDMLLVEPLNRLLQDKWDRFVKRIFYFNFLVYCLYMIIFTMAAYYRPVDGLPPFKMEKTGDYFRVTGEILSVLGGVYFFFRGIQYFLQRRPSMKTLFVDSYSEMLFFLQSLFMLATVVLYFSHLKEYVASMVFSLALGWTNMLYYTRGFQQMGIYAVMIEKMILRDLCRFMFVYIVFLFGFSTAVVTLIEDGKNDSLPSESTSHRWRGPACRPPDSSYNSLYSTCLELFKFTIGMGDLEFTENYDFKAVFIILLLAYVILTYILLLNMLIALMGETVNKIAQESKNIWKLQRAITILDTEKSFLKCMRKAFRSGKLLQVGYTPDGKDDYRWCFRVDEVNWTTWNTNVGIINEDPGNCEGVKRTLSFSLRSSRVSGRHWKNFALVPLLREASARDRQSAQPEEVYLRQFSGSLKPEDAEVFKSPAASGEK
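TRPV1-expressing cells were cultured overnight at 35.5C and loaded with Fluo-8 calcium dye for 40 to 90 min at room temperature. After a 10 s baseline, compound was added and calcium influx was read kinetically for 3 min (ex 480/em 520 nm).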
D2 PAM = Beta-Arrestin HTS for Positive Allosteric Modulators of the Human D2 Dopamine Receptor: Potentiators; D(2) dopamine receptor (Homo sapiens), P14416; DiscoveRx D2 beta-arrestin cells, luminescence, 90 min; 100% = 57 uM dopamine signal; potentiation, % (no concentration beside the values); 360,000 compounds, 0.23% hits; AID 624464, 2012; active = potentiation of 50% or more; inconclusive = 30% to 50%; inactive = 30% or less;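 further: compound concentration not given in the record; tested on top of an EC20 dose of dopamine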
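PathHunter beta-arrestin assay in DiscoveRx D2 cells. Compounds were added with an EC20 of dopamine (50 nM final) for 90 min at 37 deg C. Luminescence was read 1 h after detection reagent, with 57 uM dopamine as the EC100 control.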
Sfp PPTase inh = qHTS Assay for Inhibitors of Bacillus subtilis Sfp phosphopantetheinyl transferase (PPTase). Biochemical Sfp PPTase activity, qHTS. 310,000 compounds, 3.5% hits. Potency, µM, inactives show max response, negative = inhibition, usual class: inhibitors. AID 1490, 2009; active means well fitted inhibition curve with a large enough effect; inconclusive means small, poorly fitted or top-dose-only effect, or another doubt; inactive means no such curve, though single readings can be large or run the other way;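 further: the enzyme is Sfp with the accession as filed and its product quenches rhodamine fluorescence; potency means the concentration at half of the fitted maximal effect; 0% = enzyme reaction without inhibitor and -100% = no enzyme wells; top concentration of the series not given in the record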
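After 15 min at room temperature with compound, 15 nM Sfp received 5 uM rhodamine-CoA plus 12.5 uM BHQ-2-ybbR (50 mM Hepes pH 7.6, 10 mM MgCl2). Rate came from the fluorescence difference over 30 min, ex 525/em 598 nm.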
gsp antag = qHTS for Antagonists of gsp, the Etiologic Mutation Responsible for Fibrous Dysplasia/McCune-Albright Syndrome: qHTS | Potency, µM (titrated, usually from 76.9 µM), inactives show at the top dose activity change, negative = inhibition, hits mostly inhibitors | 340,000 compounds, 0.4% hits | gsp-mutant cells, cAMP HTRF, 30 min; control for the full effect not named in the record; active = falling curve of any shape with a large fitted effect; inconclusive = falling curve, mostly with a smaller effect; inactive = flat or rising curve; cell line not stated here;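 further: intracellular cAMP measured with PDE inhibitor Ro 20-1724 present during compound exposure; potency means the concentration at half of the fitted maximal effect; on the % scale 0 is the no-effect control and ±100 the full control effect; nearly all actives have a fitted effect of over 65% in size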
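G418-selected cells were plated in DMEM/10% FBS for 16-24 h at 37C, then treated with compounds plus the PDE inhibitor […] (300 uM solution added) for 30 min at 37C. Intracellular cAMP was measured by HTRF after 30 min lysis at room temperature.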
Menin-MLL FL inh = qHTS Assay for Inhibitors Targeting the Menin-MLL Interaction in MLL Related Leukemias: Competition With Fluorescein Labeled MLL-derived Peptide; Fluorescence polarization, fluorescein-MLL peptide displacement from menin; FP activity change, % at 61.4 µM; 290,000 tested, under 10 active; inconclusive = falling polarisation curve, or a change in total fluorescence; inactive = total fluorescence flat and polarisation flat or rising; no compound was filed as active; the % refers to the polarisation; negative = inhibition;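 further: % of control where 0% means no effect; inhibitors lower the polarisation; unlabelled MLL peptide was the positive control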
ClpP mod = qHTS Assay for Activators of ClpP; Potency, µM (titrated, usually from 57.5 µM), for the others: at the highest dose activity change, negative = active; purified B. subtilis ClpP, FRET peptide cleavage, 20 min; AID 651965, 2013; 340,000 compounds, 1.9% hits; active = well fitted falling curve with a large enough effect; inconclusive = small, poorly fitted or top-dose-only effect; inactive = no such curve, though single readings can be large or run the other way; further: potency means the concentration at half of the fitted maximal effect; the source files actives as falling curves though it sought activators and does not explain the sign; nearly all actives have a fitted effect of over 65% in size; many hits overshoot -100%
Target sequence (P80244 whole entry, looked up): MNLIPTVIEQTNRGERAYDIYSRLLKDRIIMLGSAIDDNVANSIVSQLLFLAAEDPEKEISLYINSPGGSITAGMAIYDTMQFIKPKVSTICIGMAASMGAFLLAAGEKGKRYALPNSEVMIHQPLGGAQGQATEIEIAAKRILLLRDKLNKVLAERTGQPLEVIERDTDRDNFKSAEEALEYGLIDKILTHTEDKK
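FRET quenching reversal measured ClpP activation: 10 microg/mL B. subtilis ClpP at pH 8 with the FRET-FV decapeptide, read at 430 nm after 320 nm excitation. The 20-min minus 0-min signal was scaled between DMSO/no-enzyme wells and ADEP (5.8 microM final).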
The depositor's hits bear a star; ? = inconclusive; nt = not tested or not shown; & = joins results of further samples; [ ] = dose if it differs, or a comment.

entry | compound | gsp agonist | TRPV1 potentiator | D2 PAM | Sfp PPTase inh | gsp antag | Menin-MLL FL inh | ClpP mod
1 | CC1CCN(C(=O)Cn2c3ccccc3c3nc4n(c(=O)c32)CCCS4)CC1 | 9% | 2 | 0 | -1% | -2% | nt | 3.9%
2 | CSc1ccccc1OCc1cc(C(=O)N2CCN(C3CCCC3)C(=O)C2)no1 | 10%[15.4 µM] | -7 | -38 | 11% | -7% | nt | -1.5%
3 | Cc1ccc(S(=O)(=O)N2CCN(C(=O)c3cc(C4CC4)nn3-c3ccccc3)CC2)cc1 | 4% | nt | -31 | nt | nt | nt | -3.4%
4 | COC(=O)c1ccc(COC(=O)CNS(=O)(=O)c2ccccc2)cc1 | -20% | 22 | -7 | 9% | 1% | 0.3 | 1.1%
5 | COc1ccc(-c2csc(NC(=O)c3c(C)noc3C)n2)cc1 | -1% | 1 | 1 | nt | ? | nt | -7.2%
6 | O=C(CCl)NNc1cccc(Cl)n1 | 6% | 16 | -45 | ? | -1% | -4.3 | 1.7%
7 | COc1cccc(NC(=O)C2CCN(Cc3cnn(-c4ccccc4)c3-n3cccc3)CC2)c1 | -12% | ? | -21 | 12% | 3% | -12 | -0.5%
8 | CCOP(=O)(c1ccccc1)C(O)c1ccc(F)cc1 (stereo unspecified) | -5% | 2 | 10 | 22% | -5% | 0.9 | -1.4%
9 | O=C1C2C3C=CC(C3)C2C(=O)N1Nc1c(Cl)cc(Cl)cc1Cl (stereo unspecified) | -21% | -15 | -3 | 11% | 5% | -5.9 | 1.0%
10 | Fc1ccc(-c2n[nH]c(=S)n2-c2ccc3c(c2)OCCO3)cc1 | ? | 13 | -3 | ? | -9% | 2.2 | -5.6%
11 | Cc1ccc(S(=O)(=O)N/N=c2\oc3ccccc3cc2C(=O)Nc2cccc(C)c2)cc1 | nt | 14 | nt | -1% | nt | 2.4 | nt
12 | COc1ccc(Cl)cc1N1C(=O)[C@@H]2C(c3cccc(OC)c3OC)=NO[C@@H]2C1=O | 17% | 2 | -10 | 11% | -6% | -0.7 | -3.0%
13 | C=C(C)c1cccc(C(C)(C)NC(=O)NC(c2ccccc2)c2ccc(OC)cc2)c1 (stereo unspecified) | ? | 4 | -17 | 2% | -5% | -1.3 | -1.9%
14 | COc1ccc(CNC(=O)c2cc3c(=O)n4ccccc4nc3n(Cc3cccnc3)c2=N)cc1 | 27% | -17 | -5 | 6% | 4% | ? | ?
15 | NS(=O)(=O)c1ccc(NCc2cnc3ccccc3c2)cc1 | ? | nt | -6 | nt | nt | nt | -1.4%
16 | COCC1CCN(C(=O)c2ccc3oc(C(C)C)nc3c2)C1 (stereo unspecified) | -10% | nt | -2 | nt | nt | nt | 0.2%
17 | Nc1ccccc1C#Cc1ccccc1 | 2% | 9 | -7 | 11% | 4% | 4.5&1.1 | 4.1%
18 | COCCNC(=O)CCC1CCN(C/C=C/c2ccccc2OC)CC1 | 0% | 11 | -25 | 2% | 7% | 5.4 | nt
19 | CC(C)(C)c1cc(NC(=O)C2CCCO2)no1 (stereo unspecified) | 31% | -2 | -1 | 11% | 8% | -0.8 | -1.2%
20 | CC(C)(C)c1ccc(OCCC(=O)OCC(=O)N2c3ccccc3NC(=O)C2(C)C)cc1 | -46%[inhibitor] | -14 | 12 | nt | -11% | nt | 1.4%
21 | Cc1cc(C(=O)O)ccc1-c1ccc(/C=C2\NC(=O)N(Cc3ccc(F)cc3)C2=O)o1 | 2% | 30 | -8 | ? | ? | 12 | -14%
22 | O=C(O)CCCCCN1C(=O)CCC1=O | -14% | 0 | 21 | 9% | 1% | -1.2 | -2.2%
23 | CCOC(=O)CC(NC(=O)c1ccc(C)cc1)c1ccc(OC)cc1 (stereo unspecified) | -3% | -7 | -6 | 26% | 6% | -0.4 | nt
24 | CSc1nc(C)c2c(n1)N(c1ccc(F)cc1)CC2 | 3% | 4 | ? | 24% | 23% | 0.5 | -12%
25 | OC(Cc1nc2ccccc2[nH]1)c1ccccc1Cl (stereo unspecified) | 3% | 12 | -6 | 9% | 3% | 3.2 | -0.4%
26 | N#C/C(N)=C(/C#N)N=Cc1cccc(Cl)c1 | 11%[15.4 µM] | 1 | -6 | 9% | -18% | 3.0 | -0.6%
27 | Cc1ccc(-c2nn3c(C)nnc3s2)cc1N | 8% | 1 | -12 | 7% | 18% | 2.1 | 0.5%
28 | COc1ccc(-c2cc(C(F)(F)F)n3nc(C(=O)Nc4c(C)n(C)n(-c5ccccc5)c4=O)c(Cl)c3n2)cc1 | 2%[15.4 µM] | -27 | -38 | 18% | nt | 4.1 | nt
29 | COc1ccc(Nc2nc(-c3ccncc3)nc3ccccc23)cc1 | 8%[15.4 µM] | 8 | 25 | 2% | -15% | -2.1 | nt
30 | CC1(C)CC(=O)C2=C(C1)OC(N)=C([N+](=O)[O-])C2c1ccc(F)cc1 (stereo unspecified) | -9%[15.4 µM] | 5 | -2 | 16% | -2% | 0.6 | -20%
31 | O=C(NC1=NCCS1)c1cc2ccccc2o1 | -33%[inhibitor] | -10 | -6 | 15% | 4% | 2.9 | -10%
32 | CCN(CC)S(=O)(=O)c1ccc(O)c(C(=O)OCC(=O)NC23CC4CC(CC(C4)C2)C3)c1 | 14%[15.4 µM] | nt | -13 | nt | -33% | nt | 0.3%
33 | CCCCn1c(N)c(N(CC(C)C)C(=O)C2CCCO2)c(=O)[nH]c1=O (stereo unspecified) | 14% | -4 | 21 | nt | 11% | nt | -0.2%
34 | CCOc1ccc(S(=O)(=O)N2CCCC(C(=O)N3CCN(CC)CC3)C2)cc1Cl (stereo unspecified) | -13% | -16 | -11 | -7% | 3% | -4.5 | nt
35 | C=C(C)CCOC(=O)C(CC(=O)O)NCc1ccco1 (stereo unspecified) | -2% | -9 | -12 | ? | 2% | -0.3 | 0.5%
36 | CC(Oc1ccccc1F)C(=O)NNC(=O)c1ccc(-n2cncn2)c([N+](=O)[O-])c1 (stereo unspecified) | 12%[15.4 µM] | nt | -4 | nt | -3% | nt | nt
37 | Cc1cccc(NC(=O)c2cccc(S(=O)(=O)N3CCCCC3)c2)c1 | 5%[15.4 µM] | -24 | -7 | 1% | -19% | 4.4 | nt
38 | O=C(NCc1ccccc1)c1onc(CSc2ccccc2)c1C(=O)NCC1CC1 | -27% | 3 | -10 | 21% | -20% | -3.5 | 0.8%
39 | CN(CC(=O)Nc1cccc(F)c1)CC(=O)Nc1ccccc1-c1ccccc1 | 10% | nt | -9 | nt | ? | nt | nt
40 | O=C(NC1CCCCCCC1)c1c(Cl)cccc1Cl | 2% | nt | -18 | nt | 3% | nt | -1.4%
41 | COc1cc(C)ccc1OCc1cc(C(=O)N(Cc2nccn2C)C(C)C)no1 | 5% | -17 | -10 | 8% | -8% | nt | 0.1%
42 | Cc1ccccc1NC(=O)c1cccc(S(C)(=O)=O)c1 | -1% | 5 | 4 | 7% | 11% | 0.3 | nt
43 | CC(CN1CCCC1)OC(=O)c1cccc(F)c1 (stereo unspecified) | -1% | -23 | -45 | -8% | 11% | -2.3 | -0.7%
44 | COc1ccc(N2CCC(CNC(=S)Nc3ccc(C)cc3C)C2)cc1 (stereo unspecified) | 2% | -5 | -13 | 50µM* | -16% | 2.7 | -1.5%
45 | CCN(CC(=O)Nc1ccc(NC(C)=O)cc1)C(=O)c1cccc(N2C(=O)c3ccccc3C2=O)c1 | 11% | nt | -4 | nt | 8% | nt | -1.8%
46 | COc1ccc(-c2csc(NC(=O)Cc3cccc4ccccc34)c2C(=O)O)cc1 | 2%[15.4 µM] | 20 | 0 | 29% | -28% | 1.0 | nt
47 | COc1ccc(CNC(=O)C2CCC(CNS(=O)(=O)c3cccc4nsnc34)CC2)cc1 (stereo unspecified) | -41%[inhibitor] | -32 | -2 | 23% | -2% | 2.7 | 0.9%
48 | O=C(CCCn1c(=S)[nH]c2cc3c(cc2c1=O)OCO3)NC1CC1 | 0% | -51 | 3 | 1% | 16% | 2.1 | -2.2%
49 | CC(OC(=O)c1ccc(Br)o1)C(=O)NCC1CCCCC1 (stereo unspecified) | ? | nt | -10 | nt | 10% | nt | -1.9%
50 | Cc1cc(O)c(C(=O)Nc2cccc(Cl)c2)c(=O)n1C | 6% | 12 | -6 | 15% | 0% | nt | -6.0%
51 | CN(CC(=O)NC1CCN(Cc2ccccc2)CC1)S(=O)(=O)c1ccc(Cl)cc1 | ? | -8 | -11 | nt | 6% | nt | -2.9%
52 | Nn1c(SCc2ccc(F)cc2)nnc1-c1cccnc1 | -3%[15.4 µM] | 2 | -1 | 16% | 11% | 0.2 | 1.1%
53 | Oc1ccccc1/C=N/n1c(COc2ccccc2)n[nH]c1=S | 13%[15.4 µM] | -5 | -8 | ? | -22% | -0.9 | 35µM*
54 | CCN(CC)CCN1C(=O)c2oc3ccccc3c(=O)c2C1c1ccccc1 (stereo unspecified) | -32%[inhibitor] | ? | -2 | 12% | 0% | 2.1 | -1.7%
55 | CCOC(=O)C1=C(C)N(CCCC(=O)O)C(=O)NC1c1ccccc1OS(=O)(=O)c1ccccc1[N+](=O)[O-] (stereo unspecified) | nt | nt | -8 | nt | -5% | nt | -0.5%
56 | CC1(C)CC(=O)C2=C(C1)N(CCN1CCOCC1)C1=C(C(=O)CC(C)(C)C1)C2c1ccc(Cl)c([N+](=O)[O-])c1 | ? | -1 | -6 | 6% | ? | -1.8 | 0.1%
57 | COc1ccc(NC2=C(C)C(=O)CC2)cc1 | -2% | -1 | -12 | 13% | 5% | 54[activator] | 1.2%
